Source: PubChem BioAssay
HNF4A DNA FP: change in binding of human HNF4A to DNA, primary screen, biochemical, fluorescence polarization, FITC-DNA; activity change, % at 10 µM; 0.3% of 360,000 active; 1 h; Hepatocyte nuclear factor 4-alpha (Homo sapiens), P41235; in the data active = activity change above about 30%, passing the limit was not always enough;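 note: controls were the assay level and a saturating level of protein; the project sought stronger binding though the title names inhibitors; some compounds called inactive have numbers as strong as hits; positive values seem to mean higher polarization but the record does not say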
Target sequence (P41235 whole entry, looked up): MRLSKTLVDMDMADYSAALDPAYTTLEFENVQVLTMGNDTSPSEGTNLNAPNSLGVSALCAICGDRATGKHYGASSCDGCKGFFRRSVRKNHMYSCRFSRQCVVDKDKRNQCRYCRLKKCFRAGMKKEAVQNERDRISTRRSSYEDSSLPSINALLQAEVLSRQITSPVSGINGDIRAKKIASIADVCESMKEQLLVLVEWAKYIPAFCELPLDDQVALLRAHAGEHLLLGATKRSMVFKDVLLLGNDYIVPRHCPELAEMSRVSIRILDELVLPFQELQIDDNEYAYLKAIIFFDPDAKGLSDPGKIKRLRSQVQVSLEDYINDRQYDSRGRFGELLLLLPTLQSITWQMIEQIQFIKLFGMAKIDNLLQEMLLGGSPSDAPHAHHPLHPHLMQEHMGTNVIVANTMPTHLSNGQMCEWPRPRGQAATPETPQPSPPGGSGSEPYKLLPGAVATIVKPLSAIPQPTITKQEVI
ALR H2O2 inh: inhibitors of human ALR sulfhydryl oxidase, primary screen, biochemical, H2O2 detection, HRP-luminol luminescence, single point; purified ALR, DTT oxidation; inhibition, % (concentration not given with the values); 3.8% of 290,000 active; FAD-linked sulfhydryl oxidase ALR (Homo sapiens), P55789;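 active = mean and each replicate at 75% or more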;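 note: stock transfer was 7.5 nL into about 7.5 µL; 0% = neutral wells and 100% = wells with inactivated enzyme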
Target sequence (P55789 whole entry, looked up): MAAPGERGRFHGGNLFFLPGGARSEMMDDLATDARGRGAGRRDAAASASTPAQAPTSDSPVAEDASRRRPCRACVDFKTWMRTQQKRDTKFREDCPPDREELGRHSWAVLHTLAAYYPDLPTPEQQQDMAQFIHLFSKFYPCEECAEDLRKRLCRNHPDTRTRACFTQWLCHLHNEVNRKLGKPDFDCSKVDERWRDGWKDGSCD
rRNA inh HTS: reduced GFP signal of wild-type E. coli, primary screen, bacterial rRNA inhibitor project, GFP/RFP fluorescence, OD600, single point; E. coli WT GFP vs humanized-ribosome RFP mutants, 24 h; active compounds read low; DMSO median 0, no signal -100; GFP signal change (wild-type ribosome), % (no concentration beside the values); 1.6% of 350,000 active;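 active = significant combined selectivity score with lowered wild-type GFP, culture density cut under 30%, mutant RFP and density less affected; inactive = any of these conditions unmet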; note: one replicate is shown; some compounds called inactive have numbers as strong as hits
UCH37 DUB inh: inhibitors of human UCH37 deubiquitinase, primary screen, biochemical, Ub-AMC cleavage, fluorescence | inhibition, % (test concentration not listed) | 0.33% of 330,000 active | Ubiquitin carboxyl-terminal hydrolase isozyme L5 (Homo sapiens), Q9Y5K5 | purified proteasome/UCH37;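 active = mean of two replicates above 20%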;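 note: 0% = compound-free wells with enzyme and 100% = wells lacking proteasome; stock transfer was 100 nL into about 20 µL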
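System: Proteasome-associated human UCH37 deubiquitinase; Input: 0.15 nM proteasome in added enzyme buffer; Also added: Ub-AMC substrate from 1 µM stock; Incubation: 30 min compound-proteasome preincubation then 25 min substrate reaction, room temperature; Detection: fluorescence, ex 355 nm, em 460 nm; Read-out: % inhibition of Ub-AMC cleavage fluorescence; Benchmarks: no-proteasome and no-compound wells.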
FGF22 binding: binders of human FGF22 protein, primary screen, FGF22 synaptogenesis inhibitor project, biophysical, thermal shift, single point | calls only at 9.99 µM | Fibroblast growth factor 22 (Homo sapiens), Q9HCT0 | AID 651658, 2012 | 1.5% of 340,000 active | recombinant FGF22 thermal shift, SYPRO orange fluorescence; percent of sucrose octasulfate shift, DMSO zero;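 active = melting point raised past a set limit in the mean and every replicate; three in four hits are not shown here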
E coli growth: E. coli growth inhibition, primary screen, OD600; OD600 absorbance (no concentration beside the values); Escherichia coli growth, 23 h; active compounds read low; 0.21% of 330,000 active; AID 1053175, 2014;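 active = OD600 absorbance below the run mean of sample wells minus 3.6 SD, in any replicate, cut at about 0.56 in these data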;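 note: stock transfer was 300 nL into about 60 µL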
B2AR ag: beta2AR agonists driving receptor internalization, primary screen, cell-based, FAP fluorogen, flow cytometry | 0.43% of 340,000 active | Beta-2 adrenergic receptor (Homo sapiens), P07550 | AID 504454, 2011 | response, % (concentration not given with the values) | Am2.2-beta2AR cells; reference of the scale not given here;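 active = response above a set limit, near 3 SD of response in nonfluorescent compounds, cut at about 42% in these data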;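 note: stock transfer was 100 nL into about 11 µL; a reference agonist was the positive control; negative values mostly stem from fluorescent compounds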
Target sequence (P07550 whole entry, looked up): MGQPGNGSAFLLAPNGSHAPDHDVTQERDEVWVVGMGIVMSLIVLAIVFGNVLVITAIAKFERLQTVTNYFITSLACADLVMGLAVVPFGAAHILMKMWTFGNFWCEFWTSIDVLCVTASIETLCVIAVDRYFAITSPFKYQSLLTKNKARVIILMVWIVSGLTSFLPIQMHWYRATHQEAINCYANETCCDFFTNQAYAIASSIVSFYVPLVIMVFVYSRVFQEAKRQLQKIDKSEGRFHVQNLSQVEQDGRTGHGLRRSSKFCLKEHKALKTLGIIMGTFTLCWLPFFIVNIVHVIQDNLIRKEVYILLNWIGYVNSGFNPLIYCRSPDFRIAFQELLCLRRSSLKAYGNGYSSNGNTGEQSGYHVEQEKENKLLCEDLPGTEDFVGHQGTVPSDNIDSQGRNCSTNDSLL
rRNA inh HTS OD600: recorded beside rRNA inh HTS, whose call it bears; OD600 change, %; measured here: OD600 growth;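 optical density of the mix in the first replicate; 0 = DMSO median and -100 = no signal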
rRNA inh HTS RFP: further read-out of rRNA inh HTS, marked with its call; RFP signal change, %; measured here: RFP humanized mutant strains;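 first replicate; 0 = DMSO median and -100 = no signal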
Starred values were filed as active, the others as inactive; & = joins results of further samples.

Results for O=C1CCC(C(=O)OC(C(=O)c2c[nH]c3ccccc23)c2ccccc2)=NN1 (stereo not drawn) ?
HNF4A DNA FP: 5.9; ALR H2O2 inh: -21; rRNA inh HTS: 10; UCH37 DUB inh: 4.0; FGF22 binding: inactive; E coli growth: 0.69; B2AR ag: -5; rRNA inh HTS OD600: -3; rRNA inh HTS RFP: -3.2

How did CCOC(=O)n1c(=O)oc2ccccc21 do in these assays?
HNF4A DNA FP: 2.3; ALR H2O2 inh: 0; rRNA inh HTS: 12; UCH37 DUB inh: 0.8; FGF22 binding: inactive; E coli growth: 0.68; B2AR ag: 6; rRNA inh HTS OD600: 19; rRNA inh HTS RFP: 1.7

How did Cc1cc(=O)n2c3ccccc3n(CC(O)CN3CCC(C)CC3)c2c1C#N (stereo not drawn) do in these assays?
HNF4A DNA FP: 0.9; UCH37 DUB inh: -15; FGF22 binding: inactive; E coli growth: 0.68; B2AR ag: 1

How did COc1ccccc1N1CCN(C(c2cccs2)C(C)NC(=O)C(=O)N2CCOCC2)CC1 (stereo not drawn) do in these assays?
HNF4A DNA FP: 3.9; ALR H2O2 inh: 89*; rRNA inh HTS: 1; UCH37 DUB inh: 2.2; FGF22 binding: inactive; E coli growth: 0.62; B2AR ag: 0; rRNA inh HTS OD600: 2; rRNA inh HTS RFP: 0.0

How did COc1cccc(-c2cnc3c(NC=O)cc(-c4ccoc4)cn23)c1 do in these assays?
HNF4A DNA FP: 11; rRNA inh HTS: 21; FGF22 binding: inactive; rRNA inh HTS OD600: 27; rRNA inh HTS RFP: 4.9

How did C[C@H](CO)N1C[C@H](C)[C@@H](CN(C)Cc2ccc(Oc3ccccc3)cc2)Oc2c(NC(=O)c3ccncc3)cccc2C1=O do in these assays?
HNF4A DNA FP: 1.8; ALR H2O2 inh: -5; rRNA inh HTS: -22&-21; UCH37 DUB inh: 1.7; FGF22 binding: inactive; E coli growth: 0.74; B2AR ag: 5; rRNA inh HTS OD600: -43&-55; rRNA inh HTS RFP: 14&37

Results for CCOC(=O)C1=C(C)OC(N)=C(C#N)C1c1cc(Cl)c(OCC(N)=O)c(OC)c1 (stereo not drawn) ?
HNF4A DNA FP: 3.8; ALR H2O2 inh: 1; UCH37 DUB inh: 0.4; E coli growth: 0.69; B2AR ag: -8

How did Cc1cc(N2CCc3ccccc32)n2ncnc2n1 do in these assays?
HNF4A DNA FP: 1.9; ALR H2O2 inh: -9; UCH37 DUB inh: 14; E coli growth: 0.73; B2AR ag: -15

How did CC1(C(=O)NS(=O)(=O)c2cccc(F)c2)CCN1C(=O)CC1CCCCC1 (stereo not drawn) do in these assays?
HNF4A DNA FP: 2.0; rRNA inh HTS: 3; FGF22 binding: inactive; rRNA inh HTS OD600: 1; rRNA inh HTS RFP: 0.6

Results for O=[N+]([O-])c1ccccc1CS(=O)(=O)c1ccccc1 ?
HNF4A DNA FP: -4.4; ALR H2O2 inh: -1; rRNA inh HTS: 12; UCH37 DUB inh: -0.1; FGF22 binding: inactive; E coli growth: 0.66; B2AR ag: -3; rRNA inh HTS OD600: 17; rRNA inh HTS RFP: 0.3

How did COc1ccc(NC(=O)C2(C)CCCN(C(C)C)C2)cc1F (stereo not drawn) do in these assays?
HNF4A DNA FP: -5.0; rRNA inh HTS: 7; FGF22 binding: inactive; rRNA inh HTS OD600: 16; rRNA inh HTS RFP: -3.1

What do the screens show for `O=C(/C=C/c1cccs1)NC(=S)Nc1ccc(S(=O)(=O)Nc2ccccc2C(F)(F)F)cc1`?
HNF4A DNA FP: 2.5; ALR H2O2 inh: 4; rRNA inh HTS: 8; UCH37 DUB inh: 13; FGF22 binding: inactive; E coli growth: 0.65; B2AR ag: 15; rRNA inh HTS OD600: 2; rRNA inh HTS RFP: -1.1

Results for CN(C)c1ccc(CN(C(=O)c2ccc(Cl)c([N+](=O)[O-])c2)C2CCS(=O)(=O)C2)cc1 (stereo not drawn) ?
HNF4A DNA FP: 0.5; ALR H2O2 inh: 30; rRNA inh HTS: 2; UCH37 DUB inh: 6.6; FGF22 binding: inactive; E coli growth: 0.68; B2AR ag: 17; rRNA inh HTS OD600: -9; rRNA inh HTS RFP: -0.7

Results for O=C(c1cccc(Cl)c1)N1CCCC(C(=O)N2CCCCCC2)C1 (stereo not drawn) ?
HNF4A DNA FP: 5.5; ALR H2O2 inh: -18; UCH37 DUB inh: -0.7; E coli growth: 0.74; B2AR ag: 3

Results for CCc1nnc(NC(=O)CSc2nc3cc(OC)ccc3cc2C)s1 ?
HNF4A DNA FP: -6.0; ALR H2O2 inh: -3; rRNA inh HTS: 6; UCH37 DUB inh: 4.4; FGF22 binding: inactive; E coli growth: 0.7; B2AR ag: -2; rRNA inh HTS OD600: 10; rRNA inh HTS RFP: 7.2

How did CCc1nnc(NS(=O)(=O)c2ccccc2)s1 do in these assays?
HNF4A DNA FP: 0.6; ALR H2O2 inh: -4; rRNA inh HTS: -12; FGF22 binding: inactive; B2AR ag: 0; rRNA inh HTS OD600: 13; rRNA inh HTS RFP: 2.5

Results for O=C(COC(=O)CC(c1ccccc1)c1ccccc1)NCc1ccccc1 ?
HNF4A DNA FP: 0.6; ALR H2O2 inh: 2; rRNA inh HTS: -30; UCH37 DUB inh: -0.7; FGF22 binding: inactive; E coli growth: 0.68; B2AR ag: -2; rRNA inh HTS OD600: -32; rRNA inh HTS RFP: -4.6

How did CCc1nnc(NS(=O)(=O)c2ccc(N/C=C/C(=O)c3ccc(C)cc3)cc2)s1 do in these assays?
HNF4A DNA FP: 3.4; ALR H2O2 inh: 19; UCH37 DUB inh: -0.7; B2AR ag: 2

Results for CCCc1cnc(N2CCN(C(=O)c3ccccc3)CC2)nc1 ?
HNF4A DNA FP: 2.4; ALR H2O2 inh: -3; rRNA inh HTS: -3; UCH37 DUB inh: -4.3; FGF22 binding: inactive; E coli growth: 0.68; B2AR ag: 0; rRNA inh HTS OD600: -1; rRNA inh HTS RFP: -0.1

What do the screens show for `Cc1cccnc1CCNC(=O)CC1C(=O)NCCN1CC1CCCCC1` (stereo not drawn)?
HNF4A DNA FP: 4.7; ALR H2O2 inh: -5; rRNA inh HTS: 4; UCH37 DUB inh: -17; FGF22 binding: inactive; E coli growth: 0.73; B2AR ag: -1; rRNA inh HTS OD600: 0; rRNA inh HTS RFP: 1.2

Results for COc1ccc(C)cc1NC(=O)CNc1ccc(C(C)=O)cc1 ?
HNF4A DNA FP: -0.2; ALR H2O2 inh: 3; UCH37 DUB inh: 1.4; E coli growth: 0.68; B2AR ag: 3

Results for O=C(c1cccs1)N(c1ccc(F)cc1)C1C=CS(=O)(=O)C1 (stereo not drawn) ?
HNF4A DNA FP: 0.4; ALR H2O2 inh: 34; rRNA inh HTS: 8; UCH37 DUB inh: 5.4; FGF22 binding: inactive; E coli growth: 0.68; B2AR ag: 1; rRNA inh HTS OD600: 7; rRNA inh HTS RFP: 1.6

How did NS(=O)(=O)c1ccc(NC(=O)COC(=O)c2cc3ccccc3oc2=O)cc1 do in these assays?
HNF4A DNA FP: -0.8; ALR H2O2 inh: 0; rRNA inh HTS: 17; UCH37 DUB inh: -10; FGF22 binding: inactive; E coli growth: 0.73; B2AR ag: 3; rRNA inh HTS OD600: 20; rRNA inh HTS RFP: -3.7

What do the screens show for `COc1ccc(S(=O)(=O)C(C#N)c2nc3ccccc3nc2N2CCC(C)CC2)cc1` (stereo not drawn)?
ALR H2O2 inh: -5; UCH37 DUB inh: -6.3; E coli growth: 0.77

Results for CC1(C)CC(=O)C=C(C#CC2(O)CCCCC2)C1 ?
HNF4A DNA FP: -8.2; rRNA inh HTS: -17; FGF22 binding: inactive; rRNA inh HTS OD600: -4; rRNA inh HTS RFP: 2.9

What do the screens show for `CC/C(=C/c1ccccc1)c1cccc2[nH]c3c(OC)cccc3c12`?
HNF4A DNA FP: -1.2; ALR H2O2 inh: -3; rRNA inh HTS: 17; UCH37 DUB inh: -24; FGF22 binding: inactive; B2AR ag: -3; rRNA inh HTS OD600: 15; rRNA inh HTS RFP: -3.1

What do the screens show for `O=C(CSc1nnc2ccc(-c3ccc(F)cc3)nn12)N1CCCC1`?
HNF4A DNA FP: 1.8; ALR H2O2 inh: 2; rRNA inh HTS: -4; UCH37 DUB inh: -0.7; FGF22 binding: inactive; E coli growth: 0.73; B2AR ag: 2; rRNA inh HTS OD600: -6; rRNA inh HTS RFP: 0.2

Results for O=C(c1cnc(Cc2c[nH]c3ccccc23)c(I)c1)N1CCN(Cc2ccccc2)CC1 ?
HNF4A DNA FP: 1.1; rRNA inh HTS: -30; FGF22 binding: inactive; rRNA inh HTS OD600: -32; rRNA inh HTS RFP: -4.0

Results for CC(=O)Nc1ccc(Nc2nc(C(F)(F)F)nc3c2nnn3Cc2ccccc2Cl)cc1 ?
HNF4A DNA FP: -0.4; ALR H2O2 inh: -14; rRNA inh HTS: -7; UCH37 DUB inh: -139; FGF22 binding: inactive; E coli growth: 0.74; B2AR ag: 38; rRNA inh HTS OD600: 6; rRNA inh HTS RFP: -2.5

What do the screens show for `O=C(CCCC(=O)N1CCN(c2ccccc2F)CC1)c1ccccc1`?
HNF4A DNA FP: 2.6; ALR H2O2 inh: -53; rRNA inh HTS: -16; UCH37 DUB inh: 0.0; FGF22 binding: inactive; E coli growth: 0.71; B2AR ag: -4; rRNA inh HTS OD600: -29; rRNA inh HTS RFP: 2.2

Results for CC(=O)Nc1ccc(Nc2nc(C)nc3c2nnn3Cc2ccccc2Cl)cc1 ?
HNF4A DNA FP: 0.2; ALR H2O2 inh: -12; rRNA inh HTS: -9; B2AR ag: -4; rRNA inh HTS OD600: -17; rRNA inh HTS RFP: -3.2

How did Cc1cc(NC(=O)CCC(=O)N(CC(=O)NC2CCCC2)Cc2cccs2)no1 do in these assays?
HNF4A DNA FP: -0.3; ALR H2O2 inh: -5; UCH37 DUB inh: -1.9; E coli growth: 0.7; B2AR ag: 1

How did CCCOc1ccc(C(=O)CCC(=O)OCC(=O)Nc2ccc(Oc3ccccc3)cc2)cc1 do in these assays?
ALR H2O2 inh: 2; UCH37 DUB inh: 8.1; E coli growth: 0.7

Results for CC(C)(C)OC(=O)N[C@@H](Cc1ccccc1)c1nnc(SCC(=O)O)o1 ?
HNF4A DNA FP: -0.9; UCH37 DUB inh: 1.5; E coli growth: 0.69; B2AR ag: 1

What do the screens show for `CCCc1cc(=O)oc2cc(OCC(=O)NCCCn3ccnc3)c(Cl)cc12`?
HNF4A DNA FP: 0.4; ALR H2O2 inh: -4; rRNA inh HTS: -9; UCH37 DUB inh: -8.7; FGF22 binding: inactive; E coli growth: 0.69; B2AR ag: -29; rRNA inh HTS OD600: -11; rRNA inh HTS RFP: -3.1

At a glance, part of the list above.
Results for CC(C)(C)OC(=O)N[C@@H](Cc1ccccc1)c1nnc(SCC(=O)O)o1 ?
HNF4A DNA FP: -0.9; UCH37 DUB inh: 1.5; E coli growth: 0.69; B2AR ag: 1

What do the screens show for `CCCc1cc(=O)oc2cc(OCC(=O)NCCCn3ccnc3)c(Cl)cc12`?
HNF4A DNA FP: 0.4; ALR H2O2 inh: -4; rRNA inh HTS: -9; UCH37 DUB inh: -8.7; FGF22 binding: inactive; E coli growth: 0.69; B2AR ag: -29; rRNA inh HTS OD600: -11; rRNA inh HTS RFP: -3.1

The list is partial; rates above refer to the full screens.
